Compound activity deposited in PubChem by National Center for Advancing Translational Sciences (NCATS).
SmPrx2 inh: blocks S. mansoni peroxiredoxin 2 enzymatic activity; S. mansoni Prx2 activity coupled to TGR/GSH (TGR is thioredoxin glutathione reductase), NADPH fluorescence loss, qHTS; some inactives read as strong as hits; Potency, µM; actives 0.07% (n = 65,000); AID 448; active means full or partial inhibition curve with a strong effect at the top dose; inconclusive means weaker partial or single-point curve; inactive means no accepted curve; also: series up to 57 µM; many of its hits are not listed in these tables
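Prx2 activity was followed as the loss of NADPH fluorescence (ex 365/em 450 nm), read every 30 sec for 8 min after H2O2 start. The enzyme mix (50 nM Prx2, 25 nM TGR, GSH, NADPH; pH 7.4 phosphate buffer) was incubated with compound for 15 min at room temperature first.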
LT uptake inh: anthrax lethal toxin internalization inhibition; Cells, anthrax lethal toxin internalization, FRET ratio (460/530); Potency, µM (highest dose often 40 µM), for inactives: at the top dose activity change, negative = inhibition, most hits filed as inhibitors; actives 0.67% (n = 70,000); AID 912; active = well fitted falling ratio curve with the 530 nm signal flat; inconclusive = other ratio curves, or a change in one channel alone; inactive = flat curves in the ratio and both channels; the % refers to the ratio; also: % is scaled to controls: 0 for no effect and ±100 for the full control effect; nearly all actives have a fitted effect of over 50% in size; tested in ME-180 cells; beta-lactamase reporter
The depositor's hits bear a star; ? = inconclusive; . = not tested or not shown; [ ] = remark or other dose. Potency is read from the fitted curve at half-maximal effect. Only part of the results is shown; rates above refer to the full screens.

| Compound | SmPrx2 inh | LT uptake inh |
| --- | --- | --- |
| COC(=O)c1ccc(C(NC(=O)c2ccco2)[C@]2(C)C[C@H]2C2CCCCC2)cc1 (some centres not stated) | >57 | ? |
| Cc1nccn1-c1c2c(c(C#N)c3nc4ccccc4n13)CCCC2 | >57 | 1% |
| CCOc1cc(S(=O)(=O)N2CCC(Cc3ccccc3)CC2)c(OCC)cc1-n1cnnn1 | >57 | 26% |
| CC(C)CCNC(=O)C1CCN(S(=O)(=O)c2ccc3c(c2)CCC(=O)N3)CC1 | >57 | 1% |
| COc1cccc(C2/C(=C(/O)c3ccccc3)C(=O)C(=O)N2CCCC(=O)O)c1 (configuration not stated) | . | -4% |
| CS(=O)(=O)Nc1ccc(C(=O)NCc2cccnc2)cc1 | >57 | -13% |
| COc1ccc2c(CC#N)c[nH]c2c1 | . | -7% |
| Cc1occc1-c1nnc(SCc2cc(=O)n3cc(Br)ccc3n2)n1C | >57 | -24% |
| Cc1[nH]nc(-c2ccc(O)c(C)c2O)c1-c1cnn(-c2ccccc2)c1 | >57 | ? |
| COC(=O)Nc1ccc(Oc2ccccc2)cc1 | >57 | -2% |
| Cc1cn(CC[C@H](N)C(=O)O)c(=O)[nH]c1=O | >11 | -1%[8 µM] |
| C=CCc1ccc(O)c(OC)c1 | . | -2% |
| Cc1nn2c3c(cnc2c1-c1ccccc1)C(=O)CC(c1ccco1)C3 (configuration not stated) | >57 | ? |
| COc1ccc(C2CC(c3ccc(F)cc3)Nc3nc(N)nn32)cc1OC (configuration not stated) | >57 | -5% |
| O=C(Nc1cnn(C23CC4CC(CC(C4)C2)C3)c1)c1cnn2cccnc12 | >57 | ? |
| COC(=O)[C@@]1(Cc2ccc(F)cc2)[C@H]2c3cc(C(=O)N4CCCC4)n(Cc4c(CO)[nH]cc(C)c4=O)c3C[C@H]2CN1C(=O)c1ccccc1 | >57 | ? |
| O=C(Nn1cnc2ccccc2c1=O)c1ccccc1Cl | >57 | 4% |
| CCOc1ccc(S(=O)(=O)N2CCN(C)CC2)c(C)c1C | >57 | 1% |
| Cc1ccc(C)c(NC(=O)CSc2nnc(-c3ccccc3C)o2)c1 | >57 | -8% |
| N#Cc1cccc(-c2nccc(NCc3cccs3)n2)c1 | >57 | -23% |
| O=C(C1CC1)N(CCc1ccccc1)Cc1nc2ccccc2c(=O)[nH]1 | >57 | -21% |
| CCOC(=O)CSc1nc2nc(C)cc(C)n2n1 | >57 | -4% |
| CCC1C2CN(C(C)=O)CC=C2C(C#N)=C(N)C1(C#N)C#N (configuration not stated) | >57 | -12% |
| Cc1ccc(NC(=O)c2ccco2)c(NC(=O)CN2C(=O)c3ccccc3C2=O)c1 | >57 | 3% |
| Fc1cccc(-c2cc3nc4c(c(N5CCN(c6cnccn6)CC5)n3n2)CCCC4)c1 | >57 | ? |
| CCCC(C(=O)NCc1ccco1)N(C(=O)CNS(=O)(=O)c1ccccc1)C1CCCC1 (configuration not stated) | >57 | -2% |
| COCC(=O)N1CCC2(CCCN(Cc3ccncc3)C2)CC1 | >57 | -12% |
| CCCCCC(=O)Nc1ccccc1N1CCN(c2ccccc2)CC1 | >57 | ? |
| CS(=O)(=O)NCc1nnc(SCC(=O)NC2CCCCC2)n1-c1ccc(F)cc1 | >57 | -1% |
| CCN(CC)c1ccc(C2C(C(=O)OCCOC(C)C)=C(C)NC3=C2C(=O)CCC3)cc1 (configuration not stated) | >57 | ? |
| O=C1c2cccnc2C(=O)N1CO | >57 | 1% |
| C[C@@H](C(=O)NCCF)[C@H]1C[C@]1(C)[C@H](NC(=O)OCc1ccccc1)c1ccccc1 | >57 | -7% |
| COc1cc2nc(-c3cccs3)oc(=O)c2cc1OC | >57 | ? |
| c1ccc(CCNc2ncnc3c2cnn3-c2ccccc2)cc1 | >57 | 14% |
| O=C(O)c1ccc(NS(=O)(=O)c2ccc(Cl)cc2)cc1 | >57 | -6% |
| CCN1CCCC1CNC1=NCCCCC1 (configuration not stated) | >57 | ? |
| CC1(C(=O)Nc2nccs2)Cc2ccccc2C(=O)O1 (configuration not stated) | >57 | ? |
| CCOC(=O)C1=C(C)OC(N)=C(C#N)C1c1c(C)nn(-c2ccc(C)cc2)c1Cl (configuration not stated) | >57 | -15% |
| C=CCn1c(=N)c(C(=O)NCCCOC)cc2c(=O)n3ccccc3nc21 | >57 | ? |
| Cn1cc(C(=O)NC2CCCCCCC2)c(=O)c2cc(S(=O)(=O)N3CCCC3)ccc21 | >57 | 0% |
| CCOC(=O)/C=C1\SCC(=O)N1CCOc1cccc(Br)c1 | >57 | ? |
| COc1ccc(N2C(=O)C(Cl)=C(N3CCN(Cc4ccccc4)CC3)C2=O)cc1 | >57 | ? |
| COCCNC(=O)Cc1ccc(Br)cc1 | >57 | ? |
| CCCN1C2CCCC1CC(NC(=O)Nc1cccc(C(C)=O)c1)C2 (configuration not stated) | >57 | -9% |
| Cc1c(C(=O)c2ccc3ccccc3c2)c2cccc3c2n1[C@H](CN1CCOCC1)CO3 | >26 | 2µM* |
| CSCC[C@H](NC(=O)OC(C)(C)C)c1nnc(SCC(N)=O)o1 | >57 | -7% |
| O=C(CSc1nnnn1C1CCCC1)N1CCCc2ccccc21 | >57 | 12% |
| CCCCOc1ccc(-c2nnn(CC(=O)NCc3ccco3)n2)cc1 | >57 | ? |
| O=C(O)COc1ccc(Cl)cc1Cl | . | ? |
| O=C(Nc1ccc2c(c1)OCO2)c1cc2ncc(Br)cn2n1 | >57 | 3% |

Two entries from above in a different format.
Value order – SmPrx2 inh, LT uptake inh
COc1ccc(N2C(=O)C(Cl)=C(N3CCN(Cc4ccccc4)CC3)C2=O)cc1
  >57, ?
COCCNC(=O)Cc1ccc(Br)cc1
  >57, ?

Following part:
| Compound | SmPrx2 inh | LT uptake inh |
| --- | --- | --- |
| O=C(NCc1ccco1)C(NS(=O)(=O)c1cccc2nsnc12)c1ccccc1 (configuration not stated) | >57 | -2% |
| COC(=O)C1=C(C)Nc2nc(-c3ccccc3)nn2C1c1ccc(C)o1 (configuration not stated) | >57 | -15% |
| Cc1cccc(NC(=O)CSc2nnc(CSc3nc(C)cc(C)n3)o2)c1 | >57 | -3% |
| Cc1ccc(C(=O)N(CN2CCCC2=O)c2ccc(F)cc2)cc1C | >57 | -3% |
| Cc1cc(NC(=O)c2cc3nc4c(c(C(F)(F)F)n3n2)CCc2ccccc2-4)no1 | . | ? |
| O=C(NCc1cccnc1)c1cc(-c2ccco2)on1 | >57 | -1% |
| COc1ccccc1-c1noc(CCC(=O)Nc2cccc(C(F)(F)F)c2)n1 | >57 | ? |
| COCCCNC(=O)c1ccc(CS(=O)(=O)c2ccc(OC)cc2)o1 | >57 | -11% |
| Cc1csc(NC(=O)CNS(=O)(=O)c2cccs2)n1 | >57 | -12% |
| Cc1ccc(C)c2[nH]c(=O)c(CCNC(=O)c3ccc4c(c3)OCO4)cc12 | >57 | 10% |
| CCC(=O)N1CCc2cc(Br)cc(S(=O)(=O)CCC(=O)NCc3ccco3)c21 | >57 | 1% |
| CCN(CC)S(=O)(=O)c1ccc(F)c(C(=O)NCCCN2CCOCC2)c1 | >57 | -10% |
| COc1ccc(-c2nc3cnc(Nc4ccccc4)nc3n(C[C@H]3CCCO3)c2=O)cc1 | >57 | ? |
| CC(=O)Nc1ccc(S(=O)(=O)NCc2ccc(C(=O)NCCN3CCCCCC3)cc2)cc1 | >57 | 1% |
| COc1ccc2[nH]cc(CCNc3cc(-c4ccccc4Cl)ncn3)c2c1 | >57 | ? |
| CC(C)(C)n1nnnc1C(c1ccccc1F)N(Cc1ccco1)CC1CCCO1 (configuration not stated) | >57 | -30% |
| O=C(c1ccccc1)c1coc2ccc(O)c(Cl)c12 | >57 | . |
| CC12CCC(C(=O)N3CCN(c4ncccn4)CC3)(c3nc4ccccc4nc31)C2(C)C (configuration not stated) | >57 | -10% |
| Cc1ccccc1-c1nc(Nc2ccncc2)c2ccccc2n1 | >57 | -3% |
| O=S1(=O)CCN2C(=N1)SC1=C2CCN(Cc2ccccc2)C1 | >57 | -10% |
| C=CCc1cccc2cc(NC(C)=O)c(=O)oc12 | >57 | -3% |
| CC(C)c1nc2cc3ccccc3cc2[nH]1 | >57 | -14% |
| CO/N=C\C[C@@H]1C=C[C@H](OC(C)=O)[C@H](COC(C)=O)O1 | . | 4%[8 µM] |
| CN1[C@@H]2CCC[C@H]1CC(=O)C2 | >57 | 4%[3.58 µM] |
| COc1ccc(NC(=O)C2CCCN(S(=O)(=O)c3cccc4cccnc34)C2)cc1OC (configuration not stated) | >57 | -9% |

More records
Structure	SmPrx2 inh	LT uptake inh
N#CCCN(C1CCCCC1)S(=O)(=O)CCOc1ccccc1	>57	-14%
COc1ccc(N(C(=O)COc2ccccc2)C2C=CS(=O)(=O)C2)c(OC)c1 (configuration not stated)	>57	-2%
C[C@H](NC(=O)C1(c2ccccc2)CCN(C(=O)[C@H]2CSCN2C(=O)OC(C)(C)C)CC1)C(=O)O	>57	2%
O=S(=O)(CC(CN1CCCC1)N1CCCC1)c1ccc2ccccc2c1 (configuration not stated)	>57	-1%
CCOC(=O)c1c(NC(C)=O)sc2c1CCCNC2=O	>57	-10%
COc1cc(Br)cc(CN2CCN(C)CC2)c1O	>57	4%
FC(F)(F)c1ccccc1-c1cc(NCc2cccnc2)ncn1	>57	?
C=CCN(C(=O)CNC(=O)c1ccco1)C(C(=O)NC1CCCCC1)c1ccc(OC)cc1OC (configuration not stated)	>57	7%
COC(=O)CSc1nc2ccccc2n1CC(=O)N(C(C)C)C(C)C	>57	?
O=C(CCS(=O)(=O)c1cccc2nonc12)Nc1cccc2c1CCCC2	>57	1%
Cc1ccc(-c2noc(CN3CCN(Cc4ccccc4)CC3)n2)cc1	>57	-18%
O=C(C1CCN(S(=O)(=O)N2CCOCC2)CC1)N1CCc2ccccc21	>57	?
O=CNc1ccccc1	.	?
CCc1c(C)nc2cc(-c3cccs3)[nH]n2c1=O	.	-1%
Cc1cc(C)n(C(=O)CNC(=O)COc2ccccc2)n1	>57	?
COCCNc1nc(SCC(=O)N2CCN(c3ccccc3OC)CC2)nc2ccccc12	>57	11%
CC1C(=O)C(C)C(c2ccco2)NC1c1ccco1 (configuration not stated)	>57	15%
CCC(=NCCN1CCOCC1)c1c(O)n(-c2ccccc2C)c(=O)[nH]c1=O	>57	11%
CC(C)(C)C1CCc2[nH]nc(C(=O)O)c2C1 (configuration not stated)	>57	5%
COc1ncc2nc(CCc3ccccc3)c(=O)n(Cc3ccc(F)cc3)c2n1	>57	?
Cc1c(C(=O)OC2CCCC2C)[nH]c2c1C(=O)CCC2 (configuration not stated)	>57	?
Cc1occc1-c1nnc(SCC(=O)NC(=O)NC(C)C)n1N	>57	-5%
COc1cc(OC)cc(C(=O)NC2CCSC2=O)c1 (configuration not stated)	>57	2%
COCCNC(=O)CSc1nc2ccccc2c(=O)n1CCCC(=O)NCc1ccccc1	>57	6%
CSc1nnc(C2CCCN2)n1C (configuration not stated)	>57	-14%
COc1ccccc1-c1nccc(NCc2ccccc2)n1	>57	-2%
O=C(CC1SC2=NCCN2C1=O)Nc1ccc(Br)cc1 (configuration not stated)	>57	?
CCN1CCN(Cc2nc3c(c(=O)n(C)c(=O)n3C)n2CC(=O)c2ccccc2)CC1	>57	29%
CCc1c(C)nc(/N=C(/NC(=O)c2ccccc2)Nc2ccccc2OC)[nH]c1=O	>57	0%
CCC(C)(C)n1nnnc1C(c1cc2cccc(C)c2[nH]c1=O)N1CCN(C(=O)c2ccco2)CC1 (configuration not stated)	>57	-13%
COc1ccc(S(=O)(=O)N2CCN(Cc3ccc4c(c3)OCO4)CC2)c2ccccc12	>57	7%
Cn1c(C(=O)NCc2ccccn2)cc2c(=O)n(C)c3ccccc3c21	>57	3%
COc1ccc(OC)c(C2=NOC(C(=O)Nc3cccnc3)C2)c1 (configuration not stated)	>57	10%
CCOC(=O)c1ccccc1NC1c2ccccc2C(=O)N1C1CCN(C(=O)OCC)CC1 (configuration not stated)	.	-28%
CCOC(=O)C1=C(O)C(=O)N(c2ccc(S(N)(=O)=O)cc2)C1c1ccc(OC)cc1OC (configuration not stated)	>57	?
COC(=O)c1c(C#N)c(N)nc2c1CCC2	.	-5%
O=C(O)CCc1ccc(-c2cccs2)n1NC(=O)c1ccco1	>57	-5%
CN(CC(=O)O)S(=O)(=O)c1cccs1	>57	.
N#Cc1ccc(CN2CC3(CCN(C(=O)c4cnccn4)CC3)C2)cc1	>57	-3%
CCc1ccccc1OCCCCN1CCCC1	>57	?
C=CCn1c(-c2c[nH]c3ccccc23)n[nH]c1=S	>57	-5%

A second format for 7 compounds above.
Values run as follows: SmPrx2 inh | LT uptake inh
CCc1ccccc1OCCCCN1CCCC1
  >57 | ?
O=C(O)CCc1ccc(-c2cccs2)n1NC(=O)c1ccco1
  >57 | -5%
CN(CC(=O)O)S(=O)(=O)c1cccs1
  >57 | .
COc1ccc(S(=O)(=O)N2CCN(Cc3ccc4c(c3)OCO4)CC2)c2ccccc12
  >57 | 7%
COc1ccc(OC)c(C2=NOC(C(=O)Nc3cccnc3)C2)c1 (configuration not stated)
  >57 | 10%
N#Cc1ccc(CN2CC3(CCN(C(=O)c4cnccn4)CC3)C2)cc1
  >57 | -3%
Cn1c(C(=O)NCc2ccccn2)cc2c(=O)n(C)c3ccccc3c21
  >57 | 3%
